Compound activity from PubChem BioAssay.
Six1-Eya2 blk: Six1/Eya2 interaction inhibition; Q15475+O00167; activity change, % (concentration not given with the values); hit rate 0.56% among 360,000; AID 651725; AlphaScreen GST-Six1/His-Eya2 binding, biochemical; hits give low values; control for the full effect not named in the record; in the data active = activity change below about -65%; inconclusive = about -30% to -65%; inactive = above about -30%; further: on the % scale 0 is the no-effect control and ±100 the full control effect
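Compounds are tested against tagged Six1 and Eya2 proteins bridged by glutathione donor and nickel acceptor beads; after a one-hour incubation at 37 °C without light, AlphaScreen emission is recorded.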
TRPML1 ag: human mucolipin-1 channel agonism; TRPML1-expressing cells, Ca2+ dye fluorescence, FDSS; host cell line not named in the record; reference of the full effect not given here; activation, % (concentration not given with the values); hit rate 0.12% among 410,000; in the data active = activation above about 50%; inconclusive = about 30% to 50%; inactive = below about 30%; further: 0% is about no effect; the text of the record puts the active cut at 80%
Target sequence (Q9GZU1 whole entry, looked up): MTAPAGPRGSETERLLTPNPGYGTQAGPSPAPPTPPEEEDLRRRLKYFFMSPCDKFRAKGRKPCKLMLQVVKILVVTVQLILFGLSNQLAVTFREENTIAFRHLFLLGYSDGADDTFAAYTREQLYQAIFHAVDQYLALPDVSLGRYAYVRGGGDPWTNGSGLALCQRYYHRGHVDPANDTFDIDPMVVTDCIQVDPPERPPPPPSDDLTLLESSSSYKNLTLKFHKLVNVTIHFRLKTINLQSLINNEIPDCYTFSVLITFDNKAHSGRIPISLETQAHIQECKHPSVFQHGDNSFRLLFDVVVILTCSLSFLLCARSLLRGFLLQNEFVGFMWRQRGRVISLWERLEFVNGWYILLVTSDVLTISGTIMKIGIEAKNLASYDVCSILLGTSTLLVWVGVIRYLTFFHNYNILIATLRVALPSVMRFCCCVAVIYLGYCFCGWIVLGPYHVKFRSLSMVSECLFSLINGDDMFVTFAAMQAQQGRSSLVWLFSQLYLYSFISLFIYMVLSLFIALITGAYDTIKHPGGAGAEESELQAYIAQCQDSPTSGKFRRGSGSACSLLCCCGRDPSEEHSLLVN
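Tet-induced TRPML1-DL cells, 1,500 per well, cultured overnight, were loaded with a no-wash Ca2+ dye for 45–90 min. Calcium fluorescence was recorded on the FDSS for 110 s after compound addition, before the EC80 agonist (4 uM 54-4) was added.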
TRPML1 inh: blocks the human TRPML1 channel | TRPML1-inducible cells, Ca2+ dye fluorescence, FDSS; hits give low values; inhibition of EC80 agonist-evoked calcium signal | activity change, negative = inhibition, % (test concentration not listed) | Q9GZU1 | hit rate 0.02% among 390,000 | AID 624415; in the data active means activity change below about -50%; inconclusive means about -30% to -50%; inactive means above about -30%;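 further: stimulus is agonist 54-4 at its EC80 concentration; on the % scale 0 is the no-effect control and ±100 the full control effect; compound concentration not given in the record; the text of the record puts the active cut at -80%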
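Tet-induced TRPML1-DL cells loaded with Ca8 no-wash calcium dye were read kinetically on FDSS. Compound addition was followed by EC80 agonist 54-4 (4 uM final); inhibition was read over 110 s.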
D2 potentiator: positive allosteric modulators of human D2 dopamine receptor; AID 624464; potentiation, % (test concentration not listed); hit rate 0.23% among 360,000; DiscoveRx D2 beta-arrestin cells, luminescence, 90 min; 100% = 57 uM dopamine signal; active = potentiation of 50% or more; inconclusive = 30% to 50%; inactive = 30% or less;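 further: compound concentration not given in the record; tested on top of an EC20 dose of dopamine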
Target sequence (P14416 whole entry, looked up): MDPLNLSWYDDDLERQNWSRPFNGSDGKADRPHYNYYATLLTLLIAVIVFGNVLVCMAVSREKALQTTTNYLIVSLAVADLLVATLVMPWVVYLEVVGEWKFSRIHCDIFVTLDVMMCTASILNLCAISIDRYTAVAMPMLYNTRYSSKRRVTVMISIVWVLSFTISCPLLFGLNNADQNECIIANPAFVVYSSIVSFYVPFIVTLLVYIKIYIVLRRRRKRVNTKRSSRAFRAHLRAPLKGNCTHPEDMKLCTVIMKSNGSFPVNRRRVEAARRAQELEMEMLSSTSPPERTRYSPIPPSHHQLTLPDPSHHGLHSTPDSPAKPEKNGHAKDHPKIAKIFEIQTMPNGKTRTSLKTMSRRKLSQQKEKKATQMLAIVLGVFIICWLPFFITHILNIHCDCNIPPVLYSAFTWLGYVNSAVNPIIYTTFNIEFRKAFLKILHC
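PathHunter D2 cells, attached overnight at 37 deg C, received compound in DMSO plus dopamine at EC20 (50 nM final) for 90 min at 37 deg C. Beta-arrestin recruitment was read as luminescence after 1 h with detection reagent at ambient temperature.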
CtBP-E1A inh: CtBP/E1A binding inhibition; AlphaScreen GST-E1A/His-CtBP binding, 1536-well; hits give low values; control for the full effect not named in the record; hit rate 0.49% among 340,000; activity change, % (concentration not given with the values); in the data active means activity change below about -65%; inconclusive means about -30% to -65%; inactive means above about -30%; further: on the % scale 0 is the no-effect control and ±100 the full control effect
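AlphaScreen with 125 nM GST-E1A and 125 nM His-CtBP (5X stocks) in Tris pH 8.0, 300 mM NaCl, BSA, Tween 20, TCEP. Compounds preincubated 2 h at 37 deg C, then glutathione donor/nickel acceptor beads added for 1 h at 37 deg C in dark.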
TRPV1 potentiator: human TRPV1 potentiation; Q8NER1; TRPV1-expressing cells, Fluo-8 calcium influx, capsaicin EC20 potentiation; host cell line not named in the record; control for the full effect not named in the record; potentiation, % at 8.33 µM; hit rate 0.02% among 320,000; AID 540277; active means potentiation above 80%; inconclusive means 30% to 80%; inactive means below 30%; further: 0% is about no effect
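Fluo-8 calcium influx in TRPV1-expressing cells, kinetic read (ex 480/em 520 nm). Compound added and read 3 min for agonist activity, followed by capsaicin at EC20 final and 2 min further read for enhancement.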
Numbers without * were called inactive; u = inconclusive; x = not tested or not shown; & = joins results of further samples.

SMILES	Six1-Eya2 blk	TRPML1 ag	TRPML1 inh	D2 potentiator	CtBP-E1A inh	TRPV1 potentiator
CCn1c(=O)cc(OCC(=O)N2CCN(c3cccc(C(F)(F)F)c3)CC2)c2ccccc21	-6.3	-0.1	-9.7	-10.7	-5.0	15.1
CCCCn1c(=O)c2c(nc3n2CCCN3Cc2ccccc2)n(C)c1=O	-3.7	1.3	-26.5	0.4	-4.1	3.3
Cc1cc(OCC(=O)Nc2nccs2)c2c(C)c(C)c(=O)oc2c1	-2.2	0.0	-1.6	-0.8	-9.8	x
O=C(O)c1ccccc1NC(=O)c1cc2ccccc2oc1=O	13.1	x	x	50.8*	x	-3.6
CCCC[n+]1ccc(-c2nc3ccc([N+](=O)[O-])cc3[nH]2)cc1	2.6	0.2	-10.4	-32.2	-1.6	-5.3
O=C(/C=C/c1ccco1)NC(=S)Nc1cccc(C(=O)O)c1	u	0.1	-2.6	-15.4	-0.5	-0.9
CCn1c2ccccc2c2cnc(N=CN(C)C)c(C#N)c21	6.0	0.8	20.0	-12.1	-0.8	-16.4
CCOC(=O)c1ccc(N2C(=O)CC(N3CCC(O)(c4ccc(Cl)cc4)CC3)C2=O)cc1 (configuration not stated)	0.6	-0.7	2.3	-10.1	0.1	-0.6
COc1ccc(CSC(=N)N)cc1[N+](=O)[O-]	-3.6	-0.3	-3.7	-15.1	5.3	14.1
COc1ccc(C2c3cc(OC)c(OC)cc3CCN2C(=O)c2cccc([N+](=O)[O-])c2)cc1OC (configuration not stated)	-19.1	-0.9	8.8	-1.7	x	-43.3
COc1ccc(Nc2cc(Nc3cc(OC)c(OC)c(OC)c3)ncn2)cc1	-19.5	-1.6	8.0	-2.2	-3.0	14.6
O=C(Cn1ccc(NC(=O)OCc2ccccc2)nc1=O)NCCCc1ccccc1	-8.7	0.7	17.0	-4.7	-8.3	8.1
N#Cc1sc2nc(C3CC3)cc(-c3ccccc3)c2c1N	58.0	2.4	14.8	-16.5	28.8	-7.1
COc1cccc(CNC(=O)CN2C(=O)COc3ccc(S(=O)(=O)N4CCCCC4)cc32)c1	7.8	-0.9&3.9	15.4&1.1	-10.3	-2.5	3.6
Cc1ccc(S(=O)(=O)C(C#N)c2nc3ccccc3nc2N2CCN(C)CC2)cc1 (configuration not stated)	-8.2	0.7	-14.0	0.2	1.6	6.0
CN(Cc1ccccc1)C(=O)c1ccc(S(=O)(=O)N(C)c2ccccc2)cc1	-0.4	-0.2	-13.4	-1.9	x	x
Cc1cccc(NC(=O)Nc2ccc([N+](=O)[O-])cc2)n1	-2.5	-0.4	4.9	-12.7	x	-5.2
C/C(=N\NC(=O)CC#N)c1cc2ccccc2oc1=O	u	0.3	-2.2	-1.4	-14.9	0.8
N#C/C(=C/c1ccc([N+](=O)[O-])cc1)C(N)=O	0.0	-0.4	-4.6	2.8	-3.4	1.9
Cn1c(SCC(=O)Nc2ccc3c(c2)OCO3)nnc1C(F)(F)F	6.5	0.7	2.0	-6.1	x	x
CCc1nc(SCC(=O)O)c(C#N)c2c1CCCC2	-0.6	0.1	-6.7	-0.7	1.7	-7.7
CCOC(=O)c1cccc(NC(=O)CSc2nnnn2CC)c1	-3.2	-0.7	2.8	-18.4	1.8	5.0
COc1ccc(CC(=O)NNC(=O)c2ccc(Br)o2)cc1	-1.3	-0.1	3.4	0.6	-7.7	-4.7
O=C(NCc1ccccc1)c1onc(CSc2ccc(Cl)cc2)c1C(=O)NCc1ccccc1	-9.2	3.2	-1.4	-12.5	x	5.1
COc1cccc(CNC(=O)N2CCN(c3ccccc3Cl)CC2)c1	-2.5	-0.3	1.8	-1.8	-1.8	-20.0
COC(=O)c1ccc(CN(c2ccc(C(=O)O)c(O)c2)S(=O)(=O)c2ccc(Cl)c([N+](=O)[O-])c2)cc1	u	-1.2	21.8	-8.7	-1.6	17.4
COCCCNC(=S)NC(=O)c1ccc([N+](=O)[O-])cc1	-1.0	-0.1	-3.2	6.6	0.8	u
COc1ccccc1C(=O)NNC(=O)c1nn(Cc2ccccc2)c(=O)c2ccccc12	-5.8	2.2	1.2	1.3	-5.1	-3.4
Cc1ccc(NC(=O)CSc2nnc(-c3cccs3)o2)cc1S(=O)(=O)N1CCCCC1	-5.4	0.7	4.0	-7.4	-14.0	-23.5
Cc1ccc(C(C)(C)C)cc1S(=O)(=O)N1CCC(C(=O)N2CCN(c3ccc(O)cc3)CC2)CC1	-12.1	0.6	-5.7	-6.2	u	-10.1

Some of these compounds in order of the D2 potentiator value, rising:
| canonical_smiles | D2 potentiator |
| --- | --- |
| Cc1cccc(NC(=O)Nc2ccc([N+](=O)[O-])cc2)n1 | -12.7 |
| O=C(NCc1ccccc1)c1onc(CSc2ccc(Cl)cc2)c1C(=O)NCc1ccccc1 | -12.5 |
| Cc1ccc(NC(=O)CSc2nnc(-c3cccs3)o2)cc1S(=O)(=O)N1CCCCC1 | -7.4 |
| C/C(=N\NC(=O)CC#N)c1cc2ccccc2oc1=O | -1.4 |

More structures:
SMILES	Six1-Eya2 blk	TRPML1 ag	TRPML1 inh	D2 potentiator	CtBP-E1A inh	TRPV1 potentiator
O=S(=O)(Nc1ccc(-n2cccc2)cc1)c1ccc(F)cc1	-2.5	-0.1	-4.5	-5.9	x	-6.3
CCOc1ccc(-c2nc(N)ncc2Oc2cccc(OC)c2)c(O)c1	-15.2	1.8	0.1	-10.8	-9.5	-1.2
CC(C)C(=O)N1CCC(c2nc(-c3ccc(S(=O)(=O)N4CCCC4)cc3)no2)CC1	5.0	0.8	-7.2	1.4	7.5	-3.1
CCCn1c(Sc2nnnn2-c2ccccc2)n[nH]c1=O	0.2	-0.1	-0.1	-10.9	6.4	-3.2
CC(OC(=O)c1ccc(Cl)nc1)C(=O)NC(C)(C)C (configuration not stated)	11.2	-0.6	16.0	-5.6	7.0	8.3
CSc1nc2c(c(=O)[nH]1)C(c1ccc(Br)cc1)CC(=O)N2 (configuration not stated)	3.5	1.1	-5.6	1.3	11.5	10.3
Cc1cccc(C)c1NC(=O)CS(=O)CC(=O)N1CCN(c2ccccc2)CC1 (configuration not stated)	-0.5	-0.2	-1.5	0.1	4.8	6.3
COc1ccccc1CCc1nnc(CCC(=O)NC(C)Cc2cccnc2)o1 (configuration not stated)	1.4	0.1	1.6	-2.9	10.3	-3.7
O=C(CCN1CCOCC1)N1CCc2c([nH]c3ccccc23)C1c1cccc(Cl)c1 (configuration not stated)	-19.8	2.5	-14.1	-14.4	-16.4	-4.0
O=C(O)c1cccc(N2C(=O)c3cccc4cccc(c34)C2=O)c1	5.3	0.1	22.2	-0.5	-19.4	-9.3
O=C(CN1CCCN(Cc2ccc(F)cc2Cl)C1=O)NC1CCCC1	9.5	-0.4	-4.2	0.1	-22.1	-0.1
CC(C)CNC(=O)c1ccccc1NC(=O)CN(c1ccccc1)S(=O)(=O)N(C)C	8.1	0.3	2.4	0.4	8.4	-15.2
C=C(C)n1c(=O)n(Cc2ccc(C)cc2)c2ccccc21	18.4	0.7	-6.0	-11.2	x	11.8
C[C@H](CO)N1C[C@H](C)[C@@H](CN(C)C(=O)OCc2ccccc2)OCc2cn(nn2)CCCC1=O	5.1	-0.3	-11.7	3.5	1.4	x
Cc1ccc(SCc2cc(=O)[nH]c(N3CCCCC3)n2)cc1	-1.7	-0.5	-5.0	-10.5	0.1	-11.3

Single records, from the list above. Values in the order: Six1-Eya2 blk | TRPML1 ag | TRPML1 inh | D2 potentiator | CtBP-E1A inh | TRPV1 potentiator
CCOc1ccc(-c2nc(N)ncc2Oc2cccc(OC)c2)c(O)c1 is entered as -15.2 | 1.8 | 0.1 | -10.8 | -9.5 | -1.2
CC(OC(=O)c1ccc(Cl)nc1)C(=O)NC(C)(C)C (configuration not stated) is entered as 11.2 | -0.6 | 16.0 | -5.6 | 7.0 | 8.3
O=C(CN1CCCN(Cc2ccc(F)cc2Cl)C1=O)NC1CCCC1 is entered as 9.5 | -0.4 | -4.2 | 0.1 | -22.1 | -0.1
C[C@H](CO)N1C[C@H](C)[C@@H](CN(C)C(=O)OCc2ccccc2)OCc2cn(nn2)CCCC1=O is entered as 5.1 | -0.3 | -11.7 | 3.5 | 1.4 | x

Copied from the list:
Result of CC(C)CNC(=O)c1ccccc1NC(=O)CN(c1ccccc1)S(=O)(=O)N(C)C under TRPML1 ag: 0.3
Result of CC(OC(=O)c1ccc(Cl)nc1)C(=O)NC(C)(C)C (configuration not stated) under TRPML1 inh: 16.0

Next compounds
SMILES	Six1-Eya2 blk	TRPML1 ag	TRPML1 inh	D2 potentiator	CtBP-E1A inh	TRPV1 potentiator
O=C(CCC1CCCC1)N1CCN(C(=O)c2cccnc2)CC1	-0.8	-0.8	-9.0	-4.1	0.2	-6.5
O=C(NN=C1CCCCCCCCCCC1)c1cccc(S(=O)(=O)N2CCOCC2)c1	-9.0	0.0	-18.1	-3.1	10.4	-15.3
O=C(CN1CCN(C(c2ccccc2)c2ccccc2)CC1)NCc1ccccc1	1.3	1.0	-8.6	-9.7	5.6	-5.8
O=C(NNC(=S)NCC1CCCO1)c1cc(Br)ccc1Cl (configuration not stated)	1.8	0.2	10.3	-59.6	4.5	2.6
CCN(CC)C(=O)C1=C(C)N(CCCOC)C(=O)C(CC(=O)NCCCN(C)C)C1 (configuration not stated)	9.5	-0.1	-9.0	-2.5	-5.9	x
O=C(c1ccc(OC2CCN(C(=O)C3CC3)CC2)cc1)N(CCO)Cc1ccccc1	-1.9	0.7	-17.6	0.0	-1.8	1.9
O=C(CCc1nc2ccccc2c(=O)[nH]1)Nc1cc(Cl)ccc1N1CCCCC1	-2.5	0.4	-6.3	-5.5	x	1.8
O=C(CN(Cc1ccc2c(c1)OCO2)C(=O)c1cnsn1)NC1CCCC1	4.3	-0.5	11.2	0.4	2.9	-9.4
CCC(=O)Nc1ccc(N2CCN(C(=O)c3cccs3)CC2)cc1	8.4	0.4	33.8	-5.5	x	0.3
CCOC(=O)N1CCc2c(sc(NC(=O)CN3CCN(C)CC3)c2C(=O)Nc2ccccc2)C1	11.5	1.0	-20.0	-4.7	-1.4	-18.6
O=C(N/N=C/c1ccccc1OCc1ccccc1)c1cccnc1	5.9	1.4	-2.9	-8.4	x	-4.5
COC(=O)CCC(=O)Nc1cccc(Cl)c1	10.4	-0.2	7.7	-0.8	1.2	-5.1
Cc1ccc(S(=O)(=O)NCC(=O)N2CCc3ccccc3C2)cc1	2.2	-0.4	-8.3	-4.5	3.9	13.6
O=C(Nc1ccc(N2CCOCC2)c(Cl)c1)c1ccco1	3.8	0.6	-1.4	-17.3	2.8	-4.2
N#C/C(=C/c1cccn1-c1cccc(C(=O)O)c1)c1ccc(Cl)cc1	-29.0	-1.5	65.3	-1.0	3.9	-6.6
